# Screening results as filed in PubChem BioAssay.
# NPYLR7 ag – mosquito NPYLR7 agonism; HEK293T NPYLR7/Galpha15, GCaMP6s calcium fluorescence; activation, % at 10 µM; 270,000 tested, 0.15% active; AID 1259423; in the data active = activation above about 40%;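 note: 0% = vehicle and 100% = reference agonist at the receptor; some compounds past the cut are filed as inactive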
# NPYLR7 ag max-min – recorded beside NPYLR7 ag, whose call it bears; activation, %; measured here: Max-Min RFU normalised activation; some inactives read as strong as hits;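 span of the calcium signal over five minutes; 0% = vehicle and 100% = native peptide agonist; compound fluorescence can raise it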
# * marks the source's active call; other numbers are inactive results; & = joins results of further samples.
# Each structure is followed by: NPYLR7 ag, NPYLR7 ag max-min
COc1cccc(OCC(=O)Nn2cnc3c(cnn3C(C)(C)C)c2=O)c1
  5.5, 3.8
N#Cc1cnn(-c2cccc(C(=O)NOC3CCCCO3)c2)c1N (stereo not drawn)
  -8.3, -8.3
Cc1cc(C(=O)N2CCCC(O)(CO)CC2)c2cc(Cl)ccc2n1 (stereo not drawn)
  3.0, 1.3
CC(=O)N1CCN(C(=O)C(=O)NCC(c2ccc(N(C)C)cc2)N2CCc3ccccc32)CC1 (stereo not drawn)
  8.0, 2.6
CC1(c2ccc(OC(F)(F)F)cc2)NC(=O)NC1=O (stereo not drawn)
  9.4, 7.5
CCN1CCN(C(=O)CC(c2cccc(OC)c2OC)c2c[nH]c3ccccc23)CC1 (stereo not drawn)
  4.1, 6.2
CCc1nnc(-c2cc3ccccc3n2CC(=O)c2ccc(OC)cc2)o1
  -3.9, -4.3
Cc1cccc(Nc2ccc(NCCNC(=O)Nc3ccccc3)nn2)n1
  12.7, 6.7
O=C(O)c1ccccc1N=Cc1nc(-c2ccc(Cl)cc2)oc1O
  -9.5, -19.5
COC(=O)CCCNC(=O)c1cc(S(=O)(=O)N2CCCCC2)ccc1Cl
  -0.6, 7.2
CN(C(=O)Nc1cccc(F)c1)C1CCC2(CC1)OCC(C)(C)CO2
  1.8, -2.5
COc1cccc(OC)c1C(=O)N1CCN(c2nc(CCC(C)C)nc3c2cnn3-c2cccc(Cl)c2)CC1
  37.8, 35.1
O=C(CN1C(=O)C2C3C=CC(C3)C2C1=O)Nc1nncs1 (stereo not drawn)
  4.2, 0.5
O=C(CCC1CCCN(Cc2cnc(N3CCOCC3)s2)C1)Nc1ccccc1F (stereo not drawn)
  14.8, 4.7
COCCCNc1nc2nonc2nc1NC1(c2ccccc2)CC1
  6.6, 8.5

# Random excerpt: seven entries already listed.
# Each structure is followed by: NPYLR7 ag, NPYLR7 ag max-min
CN(C(=O)Nc1cccc(F)c1)C1CCC2(CC1)OCC(C)(C)CO2
  1.8, -2.5
CCc1nnc(-c2cc3ccccc3n2CC(=O)c2ccc(OC)cc2)o1
  -3.9, -4.3
CC(=O)N1CCN(C(=O)C(=O)NCC(c2ccc(N(C)C)cc2)N2CCc3ccccc32)CC1 (stereo not drawn)
  8.0, 2.6
O=C(O)c1ccccc1N=Cc1nc(-c2ccc(Cl)cc2)oc1O
  -9.5, -19.5
O=C(CCC1CCCN(Cc2cnc(N3CCOCC3)s2)C1)Nc1ccccc1F (stereo not drawn)
  14.8, 4.7
Cc1cccc(Nc2ccc(NCCNC(=O)Nc3ccccc3)nn2)n1
  12.7, 6.7
N#Cc1cnn(-c2cccc(C(=O)NOC3CCCCO3)c2)c1N (stereo not drawn)
  -8.3, -8.3

# Going on with the list.
# Each structure is followed by: NPYLR7 ag, NPYLR7 ag max-min
CC(C)(C)OC(=O)CCNCc1ccc2n1CCCN=C2c1ccc(Cl)c(Cl)c1
  12.3, 8.2
CCCC(=O)N1CCCC1(C)C(=O)N(C)Cc1cccc2ccccc12 (stereo not drawn)
  5.7, 1.7
CCCCn1c(CN2CCC(Cc3ccccc3)CC2)nc2c1c(=O)n(C)c(=O)n2C
  1.5, 0.3
CCN(CC)c1ccc(CNCCO)cc1
  -12.0, -16.1
CCN1CCC(NS(=O)(=O)c2ccc(C)cc2)CC1
  -3.1, -7.2
Cc1ccc(SCC(O)COC(C)C)c(C)c1 (stereo not drawn)
  0.3, -3.0
O=C(NC1CCC2(CC1)OCCO2)c1ccccc1Oc1cccnc1
  4.3, 2.6
c1c[nH]c(CN2CCN(CCn3cncn3)CC2)n1
  0.9, 2.6
CSc1nc(Oc2ccc(C)c(C)c2)cc(-n2nc(C)c(C(N)=O)c2N)n1
  2.8, 8.1
COc1ccc(-c2ccc(=O)n(CCNS(=O)(=O)c3c(C)cc(C)cc3C)n2)cc1
  -3.3, -3.9
O=[N+]([O-])c1cccnc1NCc1nnc2c(Cl)cc(C(F)(F)F)cn12
  1.3, 9.2
O=C(CN1CCCC1c1nc(-c2ccncc2)no1)NCc1ccccc1F (stereo not drawn)
  12.9, 9.8
Cc1cc(C)cc(C(=O)N2CCCC(C(=O)Nc3n[nH]c(C(F)(F)F)n3)C2)c1 (stereo not drawn)
  -0.5, 9.0
CC1(C)OCC(CNC(=O)Nc2ccccc2)O1 (stereo not drawn)
  0.9, -1.7
CCSc1nnc2c(n1)OC(c1ccco1)Nc1ccccc1-2 (stereo not drawn)
  -4.1, -7.2

# Each structure is followed by: NPYLR7 ag, NPYLR7 ag max-min
COc1ccccc1-c1ccc(SCC(=O)N2CCC(C)CC2)nn1
  -1.6, -2.8
O=C(O)c1cc(-c2ccccc2)nn1-c1ccc(Cl)cc1
  0.6, 11.2
CC(c1cccs1)N(C)C(=O)c1coc(COc2ccc3c(c2)OCO3)n1 (stereo not drawn)
  8.9, 3.2
CN(CCc1ccccc1)C1(C(=O)NC2CCNCC2)Cc2ccccc2C1
  4.8, 4.4
NCC1Cc2cc(-c3cc(C(F)(F)F)cc4[nH]cnc34)cc(Cl)c2O1 (stereo not drawn)
  1.5, 1.6
CN(Cc1ncc[nH]1)C(=O)COc1ccc2c(c1)OCO2
  -6.6, -16.4
Cc1ccc2nc3sc(C(=O)O)cc3cc2c1
  0.0, 5.3
COc1cn2c(cc1=O)C(=O)N(CCNC(=O)c1cccc3ccccc13)CC2
  13.6, 6.1
CCC(=O)NNC(=O)CNS(=O)(=O)c1ccccc1
  3.4, -7.8
C=CCc1cc(C=C2SC(=O)N(C(C)CC)C2=O)cc(OC)c1OCC(=O)OC (stereo not drawn)
  16.9, 10.4
CCc1nc2n(n1)C(=O)C(C(c1cccc(OC)c1)N1CCC(C(N)=O)CC1)S2 (stereo not drawn)
  -4.9, -9.6
CC(C)(C)Nc1c(-c2cccc(Cl)c2)nc2c(OCc3ccccc3)cccn12
  24.3, 33.0
Cc1cccc2oc(CCNC(=O)C3CC4C=CC3C4)nc12 (stereo not drawn)
  -6.1, -6.5
Cc1ccccc1-c1ccc(=O)n(CC(=O)N2CCOCC2)n1
  0.7, -2.6
Cc1c(C)n2c3c(=O)n(Cc4cccc(Cl)c4)c(=O)n(C)c3nc2n1CCN1CCOCC1
  0.0, 4.5

# Each structure is followed by: NPYLR7 ag, NPYLR7 ag max-min
COc1ccc(-c2ccc(SCC(=O)N3CCc4ccccc43)nn2)cc1
  2.1, 1.8
CCN(C)c1nc2ccccc2c2nnc(C)n12
  27.0, 20.8
C/C=C\C(=O)Nc1cc(C)nn1-c1nc(-c2ccc(F)cc2)cs1
  -7.0, -9.6
CN(Cc1nc2ccc(Cl)cc2[nH]1)Cc1cn(C)nc1-c1ccc2c(c1)OCCO2
  5.7, 1.7
c1ccc(C(c2ccccc2)c2n[nH]c3c2CN(CCCn2ccnc2)CC3)cc1
  7.1, -11.1
Cc1ccc(S(=O)(=O)N2CCC(NC(=O)CN3CSCC3=O)CC2)cc1
  12.7, 11.8
Cc1ccn(-c2ccc(N3CCN(C(=O)c4cccc(C(F)(F)F)c4)CC3)nn2)n1
  -3.7, -10.4
CCN1CCN(C2=C(c3c(-c4ccccc4)[nH]n(-c4ccccc4)c3=O)C(=O)N(c3ccc(OC)cc3)C2=O)CC1
  7.9&22.0, 4.5&19.1
O=C1CCc2cc(-c3cccc4cccnc34)ccc21
  -2.3, -9.2
Cc1cc(C)n(-c2ccc(N3CCN(C(=O)c4ccc(F)cc4Cl)CC3)nn2)n1
  -5.5, -8.9
Cc1ccc(-c2ccc(CCC(=O)N3CCN(CCC#N)CC3)n2-c2ccc(CC#N)cc2)c(C)c1
  26.8, 16.0
O=C(Nc1cccc2cccnc12)N1CCCC1C1CCCC1 (stereo not drawn)
  1.9, -3.0
CC(=O)NCC(=O)Nc1ccc(Cl)c(C(=O)OC(C)C)c1
  -4.5, -8.3
Cc1nc(C(=O)NC(C)C2CC3CCC2C3)nn1-c1ccc(F)cc1 (stereo not drawn)
  4.0, 1.6
CN(C)S(=O)(=O)c1ccc(C(=O)Nc2nnc(-c3ccc(F)cc3)s2)cc1
  -2.6, -11.3

# Each structure is followed by: NPYLR7 ag, NPYLR7 ag max-min
CCN(CC)c1ccc(C=C2CCC(C=NN=Cc3cccnc3)=C2N2CCOCC2)cc1
  -0.3, -2.5
CCOC(=O)CN1CC2NC3CCC2(CC3)OC1=O (stereo not drawn)
  27.3, 23.2
Cc1ccccc1CNCc1cccc(NC(=O)CCN2CCOCC2)c1
  1.8, 2.8
Cc1ccc(-n2nnnc2CNC(=O)COc2cccc3c2OC(C)(C)C3)cc1C
  -0.1, -1.2
Cc1[nH]n(-c2ccccc2)c(=O)c1N=Nc1cccc([N+](=O)[O-])c1
  -5.1, -8.3
O=C(CCN(c1nc(-c2ccco2)nc2ccccc12)C1CC1)N1CCN(c2ccccc2F)CC1
  -4.8, 0.8
C=CCOn1c(=O)c(-c2ccc(OCC)cc2)[n+]([O-])c2ccccc21
  7.8, -1.6
CCN1CCN(C(c2ccco2)C2Sc3ncnn3C2=O)CC1 (stereo not drawn)
  7.5, 6.0
Cc1nc2ccccn2c(=O)c1NC(=O)COc1ccc2ccccc2c1
  4.1, 0.6
COc1ccc(NC(=O)c2ccc(-c3cccc(NC(C)=O)c3)o2)cc1
  -4.4, -4.7
CCC(C(=O)Nc1ccc(N2CCN(c3ccccc3OC)CC2)c(C(=O)NC2CCCCC2)c1)c1ccccc1 (stereo not drawn)
  -11.0, -6.5
COC(=O)c1ccccc1CN(C)C(=O)Cc1ccc(F)cc1
  -0.6, 28.3
N#Cc1nc(-c2ccc(S(=O)(=O)N3CCCC3)cc2)oc1N1CCc2ccccc2C1
  -0.8, 6.8
COC(=O)C(c1ccccc1F)C1C=CC(NC(=O)c2ccc(Oc3cc(Cl)cc(Cl)c3)o2)C1 (stereo not drawn)
  4.4, 1.8
CCN1CCN(c2c(CN(C(=O)Cc3cccs3)C(C)C)c(C)nn2-c2ccccc2)CC1
  -0.6, 9.5

# An excerpt of these results, with each value named.
COC(=O)C(c1ccccc1F)C1C=CC(NC(=O)c2ccc(Oc3cc(Cl)cc(Cl)c3)o2)C1 (stereo not drawn)
  NPYLR7 ag: 4.4 | NPYLR7 ag max-min: 1.8

CCN1CCN(c2c(CN(C(=O)Cc3cccs3)C(C)C)c(C)nn2-c2ccccc2)CC1
  NPYLR7 ag: -0.6 | NPYLR7 ag max-min: 9.5

CCOC(=O)CN1CC2NC3CCC2(CC3)OC1=O (stereo not drawn)
  NPYLR7 ag: 27.3 | NPYLR7 ag max-min: 23.2

# Going on with the list.
# Each structure is followed by: NPYLR7 ag, NPYLR7 ag max-min
COc1ccc(C(=O)OCCN(C)C2=NS(=O)(=O)c3ccccc32)cc1OC
  10.8, 10.4
NS(=O)(=O)c1ccc(CNS(=O)(=O)N2CCCCCC2)s1
  7.9, 4.4
CCCCCCCCn1c(=O)c2c(nc3oc(C)cn32)n(C)c1=O
  9.0, 8.8
CCOCC(=O)NCC1CN(c2ccc3c(c2)OCO3)C(=O)O1 (stereo not drawn)
  3.6, 1.8
Cc1ccc(NC(=O)N(CC(=O)N(Cc2ccccc2)Cc2cccn2Cc2ccc(F)cc2)CC(C)C)c(C)c1
  1.6, 6.5
Cn1c(=O)n(CCCO)c(=O)c2c1nc1n(-c3ccccc3)c(-c3ccccc3)cn21
  4.2, 2.5
NC(=O)c1cc(NC(=O)c2ccc(Cl)nc2)cc(C(N)=O)c1
  -5.2, -4.8
CCN(CC)CCCC(C)NC(=O)c1ccc(CSc2nc(Cl)cc(N(CC)CC)n2)cc1 (stereo not drawn)
  -4.8, 2.4
CC(C)n1cc(C(=O)N2CCN(CC(=O)N3CCCC3)CC2)c2nn(-c3ccccc3)c(=O)c-2c1
  -6.2, -10.7
CC(C)(C)OC(=O)N1C2CCC1CN(C(=O)c1ccsc1)CC2 (stereo not drawn)
  3.1, 1.8
Cc1ccc2oc(C(=O)NCC3(N4CCOCC4)CCSC3)cc2c1 (stereo not drawn)
  5.9, 6.5
CCSc1nnc(SCC(=O)Nc2ccc([N+](=O)[O-])cc2)s1
  -1.4, -4.9
O=C1c2cccc([N+](=O)[O-])c2C(=O)N1CN(C(=O)C(F)(F)F)c1ccc(Cl)c(Cl)c1
  0.0, -3.3
Cc1ccc(N)c(OCc2ccccc2)c1
  1.1, -2.3
Cc1nc(-c2cccc(NCc3cc(=O)n4cc(Br)ccc4n3)c2)cs1
  5.8, 1.3
CCOC(=O)CCC(=O)N1CCc2c([nH]c3ccc(OC)cc23)C1c1ccc(OCc2ccccc2)cc1 (stereo not drawn)
  -0.3, -10.3
O=C(NCc1ccncc1)c1cnn(-c2ccc(Cl)cc2)c1C(F)(F)F
  0.8, 17.7
Cc1cccc(-c2n[nH]c(=S)n2CC(=O)NC(C)c2ccccc2Br)c1 (stereo not drawn)
  1.6, 0.7

# This is a subset (hit frequency here may not be typical).
